# Screens: PubChem BioAssay, several laboratories
# Autophagy mod – alters autophagy in cells | MEF GFP-LC3 puncta imaging; test concentration mostly 10 µM | calls only at 10 µM (by protocol) | 0.98% of 190,000 active;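 active = percentage of spot-positive cells more than 3 SD above its plate mean, without a fluorescence outlier flag or 80% toxicity; inconclusive = no clear call, values can overlap the other calls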;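 note: spot-positive cell cutoff set from DMSO-treated cells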
# Insulin prom up – MIN6 insulin promoter up-regulation; MIN6 insulin promoter-GFP reporter, high-content imaging; hits give high values; z-score at 5 µM; 0.3% of 190,000 active; AID 1625;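 active = z-score above 3 at 5 µM with at least 500 cells counted in the well; inconclusive = wells under 500 cells, flagged as cytotoxic or low count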
# WT yeast gro inh – growth inhibition of WT yeast, mitochondrial fusion screen; mitochondrial fusion phenotypic screen, WT strain; inhibition, % at 10 µM; 2.1% of 190,000 active; AID 1362; in the data active = inhibition above about 58%; tested in S. cerevisiae
# Lipid droplet – hepatic lipid droplet formation modulation; AML12 mouse hepatocytes, oleate lipid droplets, BODIPY imaging; inhibition, % at 6.5 µM; 0.4% of 240,000 active; AID 1656;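 active = lipid droplet intensity inhibited by at least 50%, with more than 500 cells counted; inconclusive = wells with under 300 cells, treated as cytotoxic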
#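 Technique: fluorescence imaging, 20x objective, two fields per well / Assay system: AML12 hepatocytes (mouse) / Measure: % inhibition of lipid droplet signal / Doses: 6.5 µM single-point dosing / Incubation: overnight exposure / Reagent: 100 µM oleic acid challenge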
# ER stress rescue – protection against thapsigargin-triggered cell killing – 384-well, CSM14.1, ATP luminescence, primary screen (AID 1222). cellular ATP content (survival), % at 20 µM; hits with a dose series show EC50 in µM. CSM14.1 thapsigargin-induced death rescue, ATP luminescence; higher % means a stronger effect. 190,000 tested, under 10 active;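 active = EC50 below 50 µM in the dose-response confirmation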;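 note: death triggered by thapsigargin at about 15 µM added after 2 h compound pretreatment; cell ATP read after overnight thapsigargin exposure of roughly 18 to 22 hours; normalized against plate controls of thapsigargin alone and 5% DMSO vehicle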
# MT stabilize HCS – stabilizes microtubules in HeLa cells; % tubulin-high responders, % at 10 µM; HeLa tubulin immunostaining HCS, 24 h; share of cells brighter than vehicle mean+2SD; AID 2205; 0.83% of 200,000 active;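 active = plate Z-score above 3 for both tubulin-high and condensed-nucleus cell shares, with cell loss under 80%, at 10 µM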;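 note: anti alpha tubulin signal scored within the nucleus-defined area of each cell; some results filed as inactive read as strong as hits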
# Dynein cargo inh – blocks dynein driven cargo transport along microtubules | 3617.4 mouse cells, GR-EGFP nuclear translocation imaging; test concentration mostly 20 µM; stimulated with dexamethasone, 1 µM; hits give low values | z-score, hits read low | 0.47% of 220,000 active | AID 1381;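 active = plate z-score of nuclear minus cytoplasmic receptor signal below a set negative limit, without overly bright fluorescence or cell loss, cut at about -3.5 in these data, passing the limit was not always enough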;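 note: z-score of nuclear minus cytoplasmic ring GR-EGFP intensity difference per well; some compounds called inactive have numbers as strong as hits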
#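 Also added: dexamethasone, 1.0 µM final. Medium: tet-free, stripped-serum medium. Detection: fixed, Hoechst-stained cells imaged at 10x for EGFP. Read-out: nuclear-to-cytoplasmic GR-EGFP distribution per well. Times: induction 48 h, compound 1 h, agonist 30 min.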
# XIAP displacement – XIAP antagonists, biochemical, IAP family, fluorescence polarization (AID 1018); XIAP BIR domain, fluorescence polarization peptide displacement; higher % means a stronger effect; displacement, % at 20 µM, or IC50 in µM where a hit was titrated; 0.007% of 200,000 active; in the data active = displacement above about 50%; note: a part of the inactive calls stands beside numbers as strong as those of hits
# WT yeast gro inh mutant strain – second read-out of WT yeast gro inh, no call of its own (marks repeat the call); inhibition, %; mitochondrial fusion phenotypic screen, mutant strain inhibition
# Dynein cargo inh cytoplasmic EGFP – second read-out of Dynein cargo inh, no call of its own (marks repeat the call); z-score; measured here: cytoplasmic GR-EGFP intensity; hits give high values
# Dynein cargo inh nuclear GR-EGFP – second read-out of Dynein cargo inh, no call of its own (marks repeat the call); z-score; measured here: nuclear GR-EGFP intensity;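 lower value marks the stronger effect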
# Dynein cargo inh cell count – further read-out of Dynein cargo inh, marked with its call; z-score; measured here: cell count per field
# Insulin prom up cell count – further read-out of Insulin prom up, marked with its call; cell count; measured here: cytotoxicity, nuclei count;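 total cells summed across four imaged fields per well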
# Lipid droplet cells 6.5 µM – further read-out of Lipid droplet, marked with its call; cell count; measured here: cell count, cytotoxicity flag;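 cells counted across two imaged fields per well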
# MT stabilize HCS Hoechst-high % – also measured in MT stabilize HCS; calls as there; % Hoechst-high responders; measured here: nuclear condensation Hoechst responders;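 share of cells brighter than vehicle mean plus two SD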
# MT stabilize HCS cytotoxicity % – second read-out of MT stabilize HCS, no call of its own (marks repeat the call); toxicity, %; measured here: cytotoxicity by cell density;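 0% = mean cell density of plate MIN control wells and 100% = no cells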
# Autophagy mod cell loss 18 h – also measured in Autophagy mod; calls as there; toxicity, %; measured here: cell loss, nuclei count;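 cell loss after 18 h compound exposure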
# * marks the source's active call; other numbers are inactive results; i = inactive; ? = inconclusive; / = no result given; & = joins results of further samples. A portion of the library; rates above refer to the full screens.
SMILES,Autophagy mod,Autophagy mod cell loss 18 h,Insulin prom up,Insulin prom up cell count,WT yeast gro inh,WT yeast gro inh mutant strain,Lipid droplet,ER stress rescue,MT stabilize HCS,MT stabilize HCS Hoechst-high %,MT stabilize HCS cytotoxicity %,Dynein cargo inh,Dynein cargo inh cytoplasmic EGFP,Dynein cargo inh nuclear GR-EGFP,Dynein cargo inh cell count,XIAP displacement,others
COc1ccccc1NS(=O)(=O)c1cc(C(=O)N2CC(C)CC(C)C2)ccc1C (centres undefined),i,39,-0.56,895,26,6,-15,-3.5%,2.3,1.3,5.7,-0.23,-0.24,0.54,1.5,-4.5%,Lipid droplet cells 6.5 µM=778
COc1ccc2cc(CN(CCO)C(=O)c3ccc(Br)cc3)c(=O)[nH]c2c1,i,1,-1.4,1320,14,25,4,0.8%,2.2,1.8,9.2,-0.15,0.86,0.33,0.53,-5.4%,Lipid droplet cells 6.5 µM=756
CCOc1cc(CNc2ccc3c(c2)OCCO3)cc(Br)c1OCC,i,34,-1.8,903,17,-12,/,-1.1%,13,54,36,0.7,0.16,0.96,-1.8,-1.8%,
Nc1ccc2oc(CCc3ccccc3)nc2c1,i,-7,-0.76,1458,-6,12,/,-0.7%,4.1,2.2,3.6,-0.54,-0.24,0.15,-0.5,-0.5%,
CC(=O)C1C(c2cccc(F)c2)NC(=O)NC1(O)C(F)(F)F (centres undefined),i,1,-0.01,1577,4,18,/,23%,4.8,4.5,6.7,0.21,-0.29,0.23,-0.19,0.0%,
CCOC(=O)CC(=O)CSc1nc(-c2ccccc2)cc(-c2ccc(Cl)cc2)c1C#N,i,-4,-0.41,1599,4,5,/,1.0%,1.6,1.7,6.8,0.31,-0.19,0.12,-0.61,-3.4%,
Cc1cc(C)c2c(c1)C1C=CCC1C(c1ccc(S(=O)(=O)N3CCOCC3)cc1)N2 (centres undefined),i,18,1.2,1582,6,1,/,-1.6%,2.0,1.1,4.3,-1.4,-0.0096,0.071,0.88,-0.4%,
CN(C)C(=O)CSc1nnc(Cc2ccc([N+](=O)[O-])cc2)o1,i,-5,0.01,1500,1,-7,/,2.2%,1.4,1.5,7.2,-0.5,-0.12,-0.38,1.7,-2.7%,
CC12CCC(C(=O)N(NC(=O)c3ccc(O)cc3)C1=O)C2(C)C (centres undefined),i,-22,-0.25,1616,-4,13,/,6.8%,1.6,2.4,5.4,0.78,-0.22,0.75,0.35,-12%,
O=C(/C=N/O)Nc1ccccc1,i,0,-0.06,1703,10,16,/,1.8%,2.9,2.0,6.5,0.35,-0.4,0.31,0.42,-2.4%,
CCCCN(C(=O)c1c(C)[nH]c(C(=O)OCC)c1C)c1ccccc1,i,8,-0.86,1092,-10,-8,/,-1.7%,6.0,2.7,3.8,0.37,-0.14,0.72,-0.28,-1.9%,
Cc1ccc(NC(=O)CSc2nc(O)cc(=O)n2C)cc1,i,-4,-0.39,1639,-2,32,/,-1.6%,1.7,0.7,6.0,0.15,-0.19,0.96,0.54,-2.5%,
C/C(CC(=O)Nc1cccc2c1CCCC2)=N\NC(=O)c1ccccc1N,i,2,1.2,1493,12,12,/,-2.1%,0.9,1.6,10,0.013,-0.22,0.23,-0.26,-2.4%,
Cc1cc(C)c2[nH]c(=O)c(CN(Cc3ccco3)C(=O)c3cccs3)cc2c1,i,7,-0.47,1401,7,14,/,-0.6%,1.0,1.4,7.6,-1,-0.18,-0.92,1.5,-9.4%,
Cc1ccc(S(=O)(=O)Nc2ccccc2-c2ccccc2NS(=O)(=O)c2ccc(C)cc2)cc1,i,7,0.25,1403,62*,18*,/,2.1%,1.5,1.3,5.9,-0.047,-0.2,-0.11,0.35,-6.2%,
Cc1oc(/C=N/NC(=O)CN(c2ccccc2Br)S(C)(=O)=O)cc1Br,i,3,0.22,1332,25,2,/,-0.5%,0.5,1.4,5.3,-0.67,-0.032,-0.43,0.71,-3.3%,
O=C(/C=C/c1ccccc1Cl)Nc1ccncc1,i,0,-0.98,1244,13,-1,/,-3.9%,1.2,1.2,8.3,-0.55,-0.31,-0.17,-0.34,-6.5%,
C[C@@H](c1ncncc1F)[C@](O)(Cn1cncn1)c1ccc(F)cc1F,/,/,0.13,1321,-71,-11,2,2.0%,/,/,/,/,/,/,/,-1.4%,Lipid droplet cells 6.5 µM=667
O=C(Nc1ccc2c(c1)OCO2)c1ccc[n+]([O-])c1,i,1,-0.55,1683,5,3,/,1.3%,3.0,1.7,5.1,-0.026,-0.15,-0.86,0.49,-2.1%,
COC(=O)c1cccc(C(=O)Oc2cccc(Br)c2)n1,i,-6,0.04,1725,11,22,/,-0.9%,4.3,3.0,6.7,0.65,-0.099,0.9,-1.9,-4.7%,
CCOC(=O)C1=C(CSc2nc(-c3ccccc3)ccc2C#N)OC(N)=C(C#N)C1c1ccc(OC)cc1 (centres undefined),i,3,-0.18,1606,3,-3,/,0.2%,2.0,1.2,8.5,-3.4,11,0.93,0.33,-10%,
Cc1c(N=Cc2ccc(Br)s2)cccc1[N+](=O)[O-],i,5,0.43,1453,-15,-4,/,0.0%,3.2,2.1,6.8,0.45,-0.2,0.56,1.2,-2.5%,
Cc1c(NC(=O)C(C)OC(=O)[C@@H](NC(=O)c2ccccc2)C(C)C)c(=O)n(-c2ccccc2)n1C (some centres undefined),i,-23,-0.31,1454,-2,-2,/,-0.6%,3.1,2.5,5.9,-0.35,-0.18,0.57,0.41,-2.4%,
CCOc1ccccc1/C=N/NC(=O)Cc1csc(Nc2cccc(C(F)(F)F)c2)n1,i,6,0.03,1622,20,-14,/,0.3%,2.0,1.7,7.0,-0.24,-0.19,0.42,0.23,-0.6%,
CN(C)S(=O)(=O)c1ccc(NC(=O)c2c(F)cccc2Cl)cc1,i,13,-0.15,1588,-2,-20,/,0.4%,3.5,1.9,7.0,0.04,-0.18,0.87,0.16,4.3%,
CCN(CC)CCN1C(=O)Cn2c(C)c(C)c3cccc1c32,i,3&-1,0.18&-0.5,1438&1307,7&-18,10&7,-14&-12,-1.1%&0.6%,1.4&1.6,0.6&2.8,12&5.2,3.2&1.4,-0.22&-0.29,2&0.21,-1.6&-1.4,-6.0%&-7.4%,Lipid droplet cells 6.5 µM=704&652
Cc1cnn(-c2cc(N/N=C/c3ccccc3Cl)ncn2)c1,i,-1,0.12,1438,4,-11,/,-0.7%,0.8,1.1,4.8,-0.4,-0.11,-0.31,0.045,-8.0%,
CC(C)Oc1ccc(C2CC(=O)NC3=C2C(=O)CCC3)cc1 (centres undefined),i,-4,0.45,1608,7,-2,/,-1.4%,1.6,1.7,7.7,-0.0028,-0.15,0.3,0.21,-3.4%,
CCc1ccc(OCCNC(=O)c2cc(SC)ccc2Cl)cc1,i,0,-0.05,1615,17,1,/,1.8%,1.0,1.1,6.7,0.18,-0.2,-0.051,0.55,0.5%,
CC(C)(O)c1cn(-c2nonc2N)nn1,i,9,-0.35,1594,50,17,/,-0.5%,8.3,2.6,4.4,0.057,-0.062,0.19,0.68,-2.2%,
CCN1CCc2c(sc(N)c2C(N)=O)C1,i,-20,-0.38,1644,-6,0,/,2.9%,1.9,2.1,9.6,0.13,-0.17,0.79,0.61,0.1%,
O=C(NCc1ccccc1)c1ccc(S(=O)(=O)N2CCCc3ccccc32)cc1,i,27,-0.28,1427,4,1,/,0.2%,3.6,1.8,4.6,-0.87,-0.15,0.17,-0.098,1.1%,
O=C(NCCCN1CCCCCC1)C1CC(=O)N(C2CCCC2)C1 (centres undefined),i,-20,4*,1559*,10,7,/,1.2%,1.8,2.4,18,0.045,-0.098,0.059,0.18,-4.5%,
C=CCNC(=O)c1onc(CSc2cc(C)cc(C)c2)c1C(=O)O,i,-2,-0.61,1709,2,6,/,4.6%,2.7,1.9,7.1,0.21,-0.2,-0.63,0.71,-3.4%,
COC(/C=C/Nc1ccc(Br)cc1)=C(C#N)C#N,i,23,0.12,1541,5,3,/,-1.5%,2.5,2.4,8.2,0.45,-0.14,0.97,-0.24,-2.1%,
CC(NC(=O)OC1CCCCC1)N1C(=O)C2C3C=CC(C3)C2C1=O (centres undefined),i,9,0.45,1536,4,5,/,-1.0%,4.4,3.2,5.6,1.5,-0.18,1.3,-1.7,-3.1%,
Cc1[nH]nc2c1C(c1ccccc1)C1=C(CC(C)(C)CC1=O)N2 (centres undefined),i,34,0.72,1524,2,-2,/,-0.3%,7.6,2.1,19,4,0.1,2,-1.4,1.4%,
Cc1cc(-c2sccc2C)nc(-n2cccc2)n1,i,18,-0.04,1523,68*,-55*,/,-0.7%,0.7,1.2,9.8,-1.1,-0.25,-0.76,1.4,-6.2%,
CCOC(=O)C1=C(COc2ccc(F)cc2Cl)NC(=O)NC1c1cc(C)ccc1C (centres undefined),i,25,0.08,1493,-14,51,/,-1.1%,3.2,1.2,4.0,0.52,0.16,0.89,0.31,-0.9%,
COc1ccc(-c2nn(-c3ccccc3)cc2/C=N/NC(=O)c2ccc(Br)o2)cc1,i,34,?,/,3,-2,/,6.3%,3.0,0.9,19,0.065,-0.19,-0.36,-0.13,-3.2%,
Cc1nnc(SCC(=O)NCc2cccs2)[nH]c1=O,i,20,0.54,1340,14,8,/,0.7%,2.7,2.0,6.0,0.084,-0.3,-0.18,1.3,-1.7%,
